Choline anaer gr: inhibitors of anaerobic choline-dependent gram-negative bacterial growth | Gram-negative bacterium anaerobic choline minimal medium, absorbance growth; active compounds read low; many inactives read as strong as hits in the columns shown | calls only | 55,000 compounds, 0.2% hits;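 active means growth z-score on choline under -2 at 7 or 20 h with little or no fall on glycerol, limits in tiers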;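 further: stock transfer was 300 nL into about 50 µL; the organism is E. coli; final concentration not given here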
Choline anaer gr early: also measured in Choline anaer gr; calls as there; z-score; measured here: choline growth z-score, timepoint 1;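 score of optical density at 7 h as mean of two plates; lower means less growth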
* = called active by the depositor; i = inactive; & = joins results of further samples. Only part of the results is shown. The share of hits here may be higher or lower than overall.

SMILES	Choline anaer gr	Choline anaer gr early
CC(=O)N1CCCc2cc(S(=O)(=O)N3CCC(C(=O)NCc4ccccn4)CC3)ccc21	i	-0.16
CCOc1ccc(CCNC(=O)c2ccc3snnc3c2)cc1	i	0.6
Cc1cccc(N2CCN(S(=O)(=O)c3ccc4c(c3)C(C)(C)C(=O)N4C)CC2)c1C	i	-0.37
CCC(C(=O)Nc1ccc(OC)cc1)n1nc(-c2ccc(C)cc2)c2c(c1=O)CCCC2 (stereo unspecified)	i	0.92
O=C(NC1CCCC1)N1CCC(n2c(C(F)(F)F)nc3cccnc32)CC1	i	0.11
CCCn1c(=O)oc2cc(NC(=O)Nc3ccc(C)c(C)c3)ccc21	i	-1.6
COc1ccc(-c2cnn3c(C(F)(F)F)cc(-c4ccccc4)nc23)cc1OC	i	0.49
COc1cc(OC)c(NC(=O)CN2CCCn3nc(C)cc32)cc1Cl	i	-0.16
O=c1ccc(N2CCCN(S(=O)(=O)c3ccc(F)c(F)c3)CC2)nn1-c1ccc(F)cc1	i	1.1
Cc1cccc(N2CCN(C(=O)CC3=NS(=O)(=O)c4ccccc4N3)CC2)c1C	i	-0.57
Cc1ccccc1C1CC(=O)c2cnc3c(-c4ccccc4)c(C)nn3c2C1 (stereo unspecified)	i	-1.7
C=CCn1c(=O)c(C(=O)Nc2ccccc2OCC)c(O)c2ccccc21	i	1.4
COc1ccc(C(=O)N2CCc3ccc(CNC(=O)c4ccc(Cl)cc4)cc32)cc1	i	-0.96
COc1ccccc1N1CCN(C(=O)CSc2nnc(-c3cccnc3)o2)CC1	i	0.17
CCCC1c2ccc(C)n2CCN1C(=O)Nc1ccc(F)cc1 (stereo unspecified)	i	-1
CCn1c(=O)c(SCC(=O)N2CCN(c3cccc(OC)c3)CC2)nc2ccccc21	i	1
O=C(Nc1ccccc1)N1CCN(Cc2cc(=O)n3nc(-c4ccccc4Cl)sc3n2)CC1	i	0.77
Cn1c(N2CCCC(C(=O)NCCCN3CCCC3)C2)cc(=O)n(C)c1=O (stereo unspecified)	i	-0.09
CCC(C)NC(=O)CN1C(=O)C(C)=C(c2ccc(C)cc2)S1(=O)=O (stereo unspecified)	i	0.9
COc1cc2c(=O)n(Cc3ccc(C(=O)NC4CC4)cc3)c(=O)n(Cc3ccc(F)cc3)c2cc1OC	i	0.86
CCc1nc(N2CCc3ccccc32)c2onc(-c3ccccc3)c2n1	i	1.1
O=S(=O)(c1ccc(F)cc1)N1CCC2(CC1)Nc1cc(F)ccc1-n1cccc12	i	-2.2
CCc1nnc(NC(=O)CCc2nc(CSc3nc4ccccc4[nH]3)no2)s1	i	-0.62
CC(=O)NCCc1csc(C2CCN(C(=O)C3CC3)CC2)n1	i	-1.4
COc1ccccc1C(=O)N(Cc1ccc(N(C)C)cc1)CC1CCCO1 (stereo unspecified)	i	-0.57

Later entries.
SMILES	Choline anaer gr	Choline anaer gr early
CCS(=O)(=O)N1CCC(N2CCN(Cc3ccccc3)C(=O)C2=O)CC1	i	-0.05
Cc1nn(C)cc1N(C(=O)c1cnccn1)C(C(=O)NC1CCCCC1)c1cccc(F)c1 (stereo unspecified)	i	0.87
CCOC(=O)[C@H](CCc1ccccc1)N[C@@H](C)C(=O)N1[C@H](C(=O)O)C[C@H]2CCCC[C@@H]21	i	0.51
CCCCC(=O)Nc1nnc2n1CCCS2	i	-2.7
Cc1oc(S(=O)(=O)N2CCCCC2)cc1NC(=O)Nc1ccccc1	i	-0.83
O=C(Nc1ccccc1F)c1cnn(-c2ccccc2)c1	i	0.51
Cc1ccc(-c2nnc(OCc3nc4ccccc4n3C)c3ccccc23)cc1	i	-0.32
CC1CCCN(c2nc(C(=O)NC3CC3)cs2)C1 (stereo unspecified)	i	0.5
Cc1ccc(NC(=O)c2cnc3ccccn3c2=O)c(C)c1	i	0.27
COc1ccc(S(=O)(=O)N2CCCC2c2cc(C(C)C)no2)cc1 (stereo unspecified)	i	-0.58
O=C(CCCN1C(=O)c2ccccc2Sc2ncccc21)N1CCN(C2CCCCC2)CC1	i	0.31
CCCCC(=O)N1CCN(c2nc(C)cc(NCC)n2)CC1	i	0.84
CCn1cc(CCC(=O)NCc2cccc(OC)c2)c2ccccc21	i	0.78
CC(C)n1c(CN2CCCC2)nc2ccccc21	i	-0.24
O=C(Nc1ccccc1Br)N1CCCN(c2nc3cc(F)ccc3n3cccc23)CC1	i	2.1
CCN(CC)CCNC(=O)C1CCCN(c2ccc(-c3ccc(C)cc3)nn2)C1 (stereo unspecified)	i	0.19
CC(=O)N1CCc2sc(C(=O)NCCCN3CCCCC3)cc2C1	i	0.91
Cc1ccc(N2C(=O)CCS2(=O)=O)cc1S(=O)(=O)NCCC1=CCCCC1	i	-0.91
c1ccc(CNc2c(-c3ccc4c(c3)OCCO4)nc3ncccn23)cc1	i	1.2
Cc1nc(Cn2c(=O)oc3cc(S(=O)(=O)NCc4ccccn4)ccc32)no1	i	-0.04
O=C(O)CCc1ccc(NCc2cccc(Oc3ccccc3)c2)cc1	i	0.41&-0.71
CCc1nc(-c2cc(S(=O)(=O)N3CCCC(C(=O)Nc4ccc5c(c4)OCO5)C3)c(C)s2)no1 (stereo unspecified)	i	1
O=C(CN1CCN(C(=O)c2cccc(Br)c2)CC1)Nc1nnc(-c2ccccc2)s1	i	-0.41
COC(=O)c1c(NC(=O)c2nn(-c3ccc(Cl)cc3)ccc2=O)sc2c1CCCC2	i	-0.02
Cc1ccc2c(c1)c(=O)n(CCC(C)C)c1nnc(SCc3ccccc3C)n21	i	0.85

A second format for some results above:
> CC1CCCN(c2nc(C(=O)NC3CC3)cs2)C1 (stereo unspecified)
  Choline anaer gr: i; Choline anaer gr early: 0.5
> Cc1ccc(NC(=O)c2cnc3ccccn3c2=O)c(C)c1
  Choline anaer gr: i; Choline anaer gr early: 0.27
> COc1ccc(S(=O)(=O)N2CCCC2c2cc(C(C)C)no2)cc1 (stereo unspecified)
  Choline anaer gr: i; Choline anaer gr early: -0.58
> O=C(CCCN1C(=O)c2ccccc2Sc2ncccc21)N1CCN(C2CCCCC2)CC1
  Choline anaer gr: i; Choline anaer gr early: 0.31

Additional structures follow.
SMILES	Choline anaer gr	Choline anaer gr early
COc1cccc(C(=O)N2CCN(C(=O)c3cc4ccccc4[nH]3)CC2)c1	i	0.14
CN1CCN(C(=O)Nc2cccc(F)c2)c2cccnc21	i	0.39
CCN(CC)CCCNC(=O)C(C)C1CCN(S(=O)(=O)c2c(C)noc2C)CC1 (stereo unspecified)	i	-0.54
CCn1cnc(S(=O)(=O)N2CCCC(C(=O)NCCC3=CCCCC3)C2)c1 (stereo unspecified)	i	0.17
Nc1c(-c2nc(-c3ccc4c(c3)OCO4)cs2)nnn1-c1ccc(Br)cc1F	i	0.81
O=S(=O)(c1cc(F)cc(F)c1)N1CCC(c2noc(-c3ccccc3)n2)CC1	i	1.2
O=C(NC1CCCC1)N1CCC2(CC1)Nc1ccccc1-n1cccc12	i	0.55
Cc1csc(-n2[nH]c(C)c(CC(=O)N3CCN(c4ccccc4)CC3)c2=O)n1	i	-1.4
Cc1ccc2snc(C(=O)N3CCN(C(=O)c4ccc(F)cc4)CC3)c2c1	i	0.06
CNC(=O)c1nn(-c2ccc(F)cc2)nc1CO	i	-1.8
O=C(NCCc1csc(-c2ccccc2)n1)[C@H]1CCCN1C(=O)c1ccc(F)c(F)c1	i	1.3
O=C(NCc1ccccn1)c1ccc(NC(=O)c2nnc(COc3ccc(Cl)cc3)s2)cc1	i	-0.95
CCCn1c(=O)c2ccccc2n2c(SCC(=O)Nc3ccc(C)c(C)c3)nnc12	i	-1
COc1cc(=O)n(-c2ccc(C)cc2)nc1C(=O)NC(c1ccccc1)c1ccccc1	i	2.6
C=CCSc1c(COC)cnc2c1c(=O)n(C)c(=O)n2C	i	-0.09
COc1cc(-c2nc3cnc(Br)cn3c2Nc2ccc(OC)c(OC)c2)ccc1O	i	2
Nc1nc(/C(=C/CC(=O)O)C(=O)N[C@@H]2C(=O)N3C(C(=O)O)=CCS[C@H]23)cs1	i	-1.2
Cn1nc(COCc2ccccc2)c2c1CCN(S(=O)(=O)c1cc(F)ccc1F)C2	i	-0.52
COc1ccc(S(=O)(=O)[C@H]2CS(=O)(=O)C[C@@H]2NC2CCCC2)cc1	i	0.18
CN1CCN(C(=O)C2(c3cccc(Cl)c3)CC2)CC1	i	-0.31
COc1ccc(NC(=O)c2ccc(SCCN3CCCCC3)nc2)cc1OC	i	-0.99
CC(=O)N1CCc2cc(-c3ccc(C(=O)NCc4cccnc4)cc3)ccc21	i	-0.97
C=CCNS(=O)(=O)c1c(C)[nH]c(=O)[nH]c1=O	i	0.9
CN(CCOc1ccc(CC2SC(=O)NC2=O)cc1)c1ccccn1 (stereo unspecified)	i	0.04&-0.69&0.74
O=S1(=O)NC(=NCc2ccc3c(c2)OCO3)Nc2ccccc21	i	0.12

One compound at a time, from the list above.
Results for `CCCCC(=O)Nc1nnc2n1CCCS2` = Choline anaer gr: i; Choline anaer gr early: -2.7
Results for `O=C(CCCN1C(=O)c2ccccc2Sc2ncccc21)N1CCN(C2CCCCC2)CC1` = Choline anaer gr: i; Choline anaer gr early: 0.31

(continued)
SMILES	Choline anaer gr	Choline anaer gr early
COCc1cc(C)nc2sc3c(c12)NCN(c1ccc(C)c(Cl)c1)C3=O	i	0.21
O=S(=O)(c1cnc[nH]1)N1CCN(c2ccc(N3CCOCC3)nn2)CC1	i	-0.05
Clc1ccc(Cc2nc3nc4c(c(NCc5ccc6c(c5)OCO6)n3n2)CCCC4)cc1	i	0.33
CC(C)c1ccc(NC(=O)CN2C(=O)CCc3cc(S(=O)(=O)N4CCCC4)ccc32)cc1	i	0.27
Cc1c(C2=CCN(S(=O)(=O)c3ccccc3)CC2)c2ccccc2n1Cc1ccccc1	i	0.99
Clc1ccc(-c2nnc(C(c3ccccc3)N3CCc4ccccc4C3)o2)cc1 (stereo unspecified)	i	0.15
COc1cccc(C(=O)N2CCN(c3nc4c(F)cccc4s3)CC2)c1	i	0.57
O=C(Cn1c(=O)n(Cc2ccccc2)c(=O)c2ncccc21)N1CCCc2ccccc21	i	-0.83
COc1ccc(OCC(=O)Nc2onc3c2CC(C)CC3)cc1 (stereo unspecified)	i	-0.62
C[C@]12CC[C@@H]3c4ccc(O)cc4C[C@@H](CCCCCCCCCS(=O)CCCC(F)(F)C(F)(F)F)[C@H]3[C@@H]1CC[C@@H]2O (stereo partly specified)	i	0.29&-0.03&1
Cc1ccccc1CN1C(=O)c2cc3cc(Cl)ccc3n2C(=O)C1(C)C(=O)NC1CCCC1 (stereo unspecified)	i	0.02
CCN(CC)S(=O)(=O)c1ccc2c(c1)N(CC(=O)NC(C)(C)C)C(=O)CS2	i	0.12
CC1CC(=O)N(CC(N)=O)c2ccccc2S1 (stereo unspecified)	i	-1
Cc1nn(-c2ccc3nncn3n2)c2c1C(c1ccccc1OCc1cccc(F)c1)CC(=O)N2 (stereo unspecified)	i	-1.2
O=C1CN(Cc2ccc(Br)cc2)S(=O)(=O)c2ccccc2N1Cc1cccc(F)c1	i	-0.24
O=C(NCCc1cscn1)[C@H]1CSCN1C(=O)c1ccccc1	i	0.42
Cc1ccc(NC(=O)N2CC=C(c3c[nH]c4ccccc34)CC2)cc1C	i	-0.34
Cc1cc(N2CCC(C)CC2)nc2ccc(NC(=O)CCC(=O)NC3CCCCC3)cc12	i	-1.2
CC(C)NCC(O)COc1cccc2[nH]ccc12 (stereo unspecified)	i	0.55&-0.2&-0.06
CN(C)C(=O)c1ccc2c(c1)N(CC(=O)NCc1ccc3c(c1)OCO3)C(=O)C1CCCCN21 (stereo unspecified)	i	0.27
O=c1c2nc(-c3ccc(Br)cc3)cn2ccn1-c1ccccc1	i	0.09
COc1cccc(CNC(=O)c2ccc3cnn(Cc4cccc(Cl)c4)c3c2)c1	i	0.85
O=C(NCC(=O)N1CCN(S(=O)(=O)c2ccc3[nH]c(=O)sc3c2)CC1)c1ccccc1	i	1.1
C[C@H](Cc1ccccc1)Nc1ncnc2c1ncn2[C@@H]1O[C@H](CO)[C@H](O)C1O (stereo partly specified)	i	0.73
Cc1ccc(N2CC(C(=O)Nc3ccc(-c4nc(-c5cccc(C)c5)no4)cc3)CC2=O)cc1 (stereo unspecified)	i	-0.43

Continuation:
SMILES	Choline anaer gr	Choline anaer gr early
CCn1c(SCc2nc(-c3cccc(C)c3)oc2C)nc2c(=O)[nH]cnc21	i	-0.62
Fc1ccccc1-c1nn2c(-c3ccccn3)nnc2s1	i	-0.06
Cc1ccc(-c2noc(C(=O)N3CCOCC3)n2)cc1S(=O)(=O)N1CCN(c2ccccn2)CC1	i	-0.22
Cc1cc(-c2c(C)sc(C)c2S(=O)(=O)Nc2cccc(Br)c2)n[nH]1	i	0.43
CC(C)NC(=O)CCc1nc2sc3c(c2c(=O)[nH]1)CCC(C(C)(C)C)C3 (stereo unspecified)	i	-0.82
Cc1c(C)n(-c2ccc(F)c(F)c2)c2ncnc(Nc3ccc(F)c(F)c3)c12	i	0.88
Cc1cc(N2CCC(C)CC2)nc2ccc(NC(=O)c3ccc(F)cc3)cc12	i	0.13
CC(C)c1cc(C2CCCN2C(=O)c2cc(C(C)C)on2)on1 (stereo unspecified)	i	0
O=C1CN(C(=O)C2CCCCC2)c2ccccc2N1	i	-0.26

For convenience, two of the compounds above:
SMILES	Choline anaer gr	Choline anaer gr early
CC(C)c1cc(C2CCCN2C(=O)c2cc(C(C)C)on2)on1 (stereo unspecified)	i	0
O=C1CN(C(=O)C2CCCCC2)c2ccccc2N1	i	-0.26

A few values from the entries so far:
O=C1CN(C(=O)C2CCCCC2)c2ccccc2N1 – Choline anaer gr early: -0.26
Cc1cc(N2CCC(C)CC2)nc2ccc(NC(=O)c3ccc(F)cc3)cc12 – Choline anaer gr early: 0.13
Cc1ccc(-c2noc(C(=O)N3CCOCC3)n2)cc1S(=O)(=O)N1CCN(c2ccccn2)CC1 – Choline anaer gr early: -0.22
Cc1c(C)n(-c2ccc(F)c(F)c2)c2ncnc(Nc3ccc(F)c(F)c3)c12 – Choline anaer gr early: 0.88
CC(C)c1cc(C2CCCN2C(=O)c2cc(C(C)C)on2)on1 (stereo unspecified) – Choline anaer gr early: 0
Cc1cc(-c2c(C)sc(C)c2S(=O)(=O)Nc2cccc(Br)c2)n[nH]1 – Choline anaer gr early: 0.43

Screening data (PubChem)
